High-throughput results: PubChem BioAssay, several laboratories
Beta2AR agonist = agonists of human beta-2 adrenergic receptor inducing internalization; P07550; Am2.2-beta2AR cells, FAP receptor internalization, flow cytometry; reference of the scale not given here; 0.43% of 340,000 active; response, % (concentration not given with the values);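 active = response above a set limit, near 3 SD of response in nonfluorescent compounds, cut at about 42% in these data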;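 note: stock transfer was 100 nL into about 11 µL; a reference agonist was the positive control; negative values mostly stem from fluorescent compounds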
Target sequence (P07550 whole entry, looked up): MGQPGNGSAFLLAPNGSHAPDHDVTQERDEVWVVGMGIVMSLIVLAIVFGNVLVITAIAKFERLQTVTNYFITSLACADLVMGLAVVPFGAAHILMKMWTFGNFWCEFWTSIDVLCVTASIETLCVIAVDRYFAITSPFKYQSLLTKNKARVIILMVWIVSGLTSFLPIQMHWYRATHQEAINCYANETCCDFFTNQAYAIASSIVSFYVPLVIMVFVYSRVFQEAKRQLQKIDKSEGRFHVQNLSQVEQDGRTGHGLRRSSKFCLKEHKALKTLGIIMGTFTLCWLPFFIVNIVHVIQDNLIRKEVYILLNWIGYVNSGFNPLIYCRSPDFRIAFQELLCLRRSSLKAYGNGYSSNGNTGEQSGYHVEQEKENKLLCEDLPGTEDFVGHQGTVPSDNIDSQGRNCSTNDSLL
A1 inh = inhibitors of the anti-apoptotic protein A1, read as caspase activation; MEF A1-2A-BIM cells, Caspase-Glo 3/7 luminescence, 3 h; percent of clofoctol response, vehicle zero; caspase activation, % (test concentration not listed); 0.066% of 330,000 active; AID 2462;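 active = over half of replicate activation scores above 10%, or exactly half above 10 with the replicate mean above 10; inconclusive = replicate mean below 10 yet half the replicates above 10; inactive = over half of replicates below 10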;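 note: wells of about 30 µL received 50 nL stock; many hits fall short of the cut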
HNF4A DNA FP = change in binding of human HNF4 alpha to DNA | HNF4a-FITC DNA binding, fluorescence polarization, 1 h | 0.3% of 360,000 active | P41235 | AID 1224865 | activity change, % at 10 µM; in the data active = activity change above about 30%, passing the limit was not always enough;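 note: controls were the assay level and a saturating level of protein; the project sought stronger binding though the title names inhibitors; some compounds called inactive have numbers as strong as hits; positive values seem to mean higher polarization but the record does not say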
UCH37 inh = blocks the human deubiquitinase UCH37; 0.33% of 330,000 active; AID 588478; purified proteasome/UCH37, Ub-AMC cleavage fluorescence; inhibition, % (no concentration beside the values);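 active = mean of two replicates above 20%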;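 note: 0% = compound-free wells with enzyme and 100% = wells lacking proteasome; stock transfer was 100 nL into about 20 µL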
Target sequence (Q9Y5K5 whole entry, looked up): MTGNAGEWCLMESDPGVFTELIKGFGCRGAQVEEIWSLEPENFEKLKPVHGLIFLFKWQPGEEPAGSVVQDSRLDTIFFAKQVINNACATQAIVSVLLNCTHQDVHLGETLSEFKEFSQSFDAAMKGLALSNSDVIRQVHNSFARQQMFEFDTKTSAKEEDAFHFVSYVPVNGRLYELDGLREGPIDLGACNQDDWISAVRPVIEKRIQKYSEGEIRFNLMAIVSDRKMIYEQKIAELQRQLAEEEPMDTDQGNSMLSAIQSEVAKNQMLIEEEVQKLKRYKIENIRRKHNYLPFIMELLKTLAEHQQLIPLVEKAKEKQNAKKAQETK
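Signal – fluorescence, ex 355 nm, em 460 nm · System – Proteasome-bound UCH37 · Input – 0.15 nM proteasome as dispensed · Timing – 30 min preincubation with enzyme, 25 min cleavage at room temperature · Read-out basis – percent inhibition of cleavage signal versus uninhibited and no-proteasome wells · Medium – Tris-HCl pH 7.4 with ATP-MgCl2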
LANA-H2A inh = blocks KSHV LANA binding to histone H2A/H2B | Q9QR71 | cell-free LANA-H2A/H2B peptide, fluorescence polarization | inhibition, % (test concentration not listed) | 0.6% of 320,000 active | AID 2629; in the data active = inhibition mostly above about 10%, no sharp cut-off; inactive = mostly below about 6.7%;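 note: stock transfer was 7.5 nL into about 10 µL; 0% = median of vehicle wells and 100% = median of positive control wells; one replicate is shown; the record names a cut of 25% in any replicate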
Ecoli growth = inhibitors of Escherichia coli growth; OD600, 23 h; stronger effect = lower value; AID 1053175; OD600 absorbance (concentration not given with the values); 0.21% of 330,000 active;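 active = OD600 absorbance below the run mean of sample wells minus 3.6 SD, in any replicate, cut at about 0.56 in these data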;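 note: stock transfer was 300 nL into about 60 µL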
Vif TR-FRET = HIV-1 Vif–A3G interaction blockers – biochemical, TR-FRET, GST-Vif 1-94, biotin-A3G peptide, dose response retest, primary screen (AID 1117319); TR-FRET GST-Vif / biotin-A3G peptide binding; higher % means a stronger effect; test concentration not given here; strong numbers were not always called active; inhibition, %; hits with a dose series show IC50 in µM; 0.57% of 260,000 active;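 active = above the screen mean plus three standard deviations and confirmed in dose response; inconclusive = results disagree or hit not tested in dose response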;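 note: Vif residues 1-94 fused to GST binding biotinylated APOBEC3G peptide 110-148; 0% = full assay without inhibitor and 100% = GST in place of GST-Vif; retest series ran down from 100 µM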
Active calls of the source: *; i = inactive; ? = inconclusive; nt = not tested or not shown. An unsorted share of the library; overall some 2.1% were active at least once.

structure,Beta2AR agonist,A1 inh,HNF4A DNA FP,UCH37 inh,LANA-H2A inh,Ecoli growth,Vif TR-FRET
CCc1ccc2n(-c3ccc(OC)cc3)c([S-])c(C(=O)Nc3cc(C)cc(C)c3)[n+]2c1,6,-0.5,7.8,-11,1.2,0.75,-5%
COC(C(=O)Nc1ccc(S(=O)(=O)Nc2ccc(C)c(C)c2)cc1)c1ccccc1 (stereo not drawn),21,-0.1,1.2,6.0,-8.0,0.74,5%
Cc1ccc(-c2csc3nc[nH]c(=O)c23)c(C)c1,15,-0.2,4.1,4.9,-3.8,0.7,nt
CC(=O)C1=C(O)C(=O)N(c2ccc(S(=O)(=O)Nc3nccs3)cc2)C1c1ccc([N+](=O)[O-])cc1 (stereo not drawn),2,0.3,-1.3,9.4,-3.5,0.66,15%
COc1ccccc1OCCSc1nc2ccccc2n1CCO,-1,-0.7,-2.4,-0.3,5.2,0.72,-1%
CCOC(=O)C(c1ccccc1)N1CCN(c2ccc(OC)cc2)CC1 (stereo not drawn),-4,-0.1,0.2,1.6,3.1,0.69,-4%
C=CCNc1nc(Cl)nc(NC2CCCCC2)n1,-7,0.7,4.1,4.1,0.0,0.66,-5%
CC(C)N(Cc1nc(-c2ccc(Cl)cc2)no1)C(=O)C(c1ccccc1)c1ccccc1,-11,0.3,-2.0,3.0,-1.0,0.69,-1%
C[C@@H]1CC=C[C@H]2[C@H]1C(=O)N(Cc1ccccc1)[C@H]2c1ccc(-c2cc3ccccc3s2)cc1F,11,-0.8,0.3,2.4,-3.0,nt,14%
COC(=O)c1c(C)nc(C)c(C(=O)OC)c1-c1ccsc1,0,0.6,2.1,2.8,4.1,0.66,nt
CCN(CC)CCNC(=O)c1ccc(NC(=O)c2c(F)cccc2Cl)cc1,14,0.2,4.7,0.5,-1.2,0.66,4%
Cc1ccc(-n2nnnc2SCC(=O)c2c(N)n(C3CC3)c(=O)[nH]c2=O)cc1,i,-0.5,1.7,0.3,17*,0.72,0%
COCCNC(=O)c1sc2ncn(CC(=O)N3CCCCC3)c(=O)c2c1C,5,0.4,65*,nt,-2.5,0.69,2%
Cc1nc2ccc(S(=O)(=O)NC(C(=O)N3CCCC3)C(C)C)cc2s1 (stereo not drawn),-6,nt,0.2,1.1,nt,0.77,1%
CC(=O)Nc1ccc(NC(=O)COC(=O)[C@@H]2CCCN2C(=O)c2cccs2)cc1,12,-0.8,6.1,4.9,0.7,0.67,0%
O=C(CNC(=O)c1ccco1)Nc1ccc(F)cc1,6,0.6,1.9,3.7,2.0,0.72,3%
COc1ccccc1NC(=S)NCc1cccnc1,2,0.1,-1.3,2.5,-9.2,0.69,-7%
CS(=O)(=O)N1CCc2cc(C(=O)N3CCN(c4ccccc4F)CC3)ccc21,-5,-0.1,1.3,1.5,-0.8,0.68,nt
Cc1cc(C)c(C#N)c(SCc2cn3ccccc3n2)n1,-30,-0.2,-1.5,1.0,-0.9,0.68,nt
COc1ccc(C(=O)NC(=S)Nc2ccc(Cl)c(C(=O)O)c2)cc1,10,-0.5,2.8,-0.2,1.3,0.71,nt

The list goes on.
structure,Beta2AR agonist,A1 inh,HNF4A DNA FP,UCH37 inh,LANA-H2A inh,Ecoli growth,Vif TR-FRET
O=C(c1cccs1)N(Cc1nc2sc3c(c2c(=O)[nH]1)CCCC3)C1CCCC1,1,-1.1,1.3,-0.4,1.0,0.71,24%
CC(=O)Nc1ccc(NC(=O)c2nc(S(=O)(=O)Cc3ccccc3)ncc2Cl)cc1,14,-0.5,-0.6,1.6,-0.6,0.7,nt
O=C(N/N=C/c1c(-c2ccccc2)[nH]c2ccccc12)c1cccnc1,-8,-0.2,-0.3,nt,-5.1,nt,-1%
COc1cc2ccccc2cc1C(=O)NC(=S)Nc1cc(C(=O)O)ccc1C,-3,nt,1.2,-14,nt,0.67,0%
Cn1c(SCC(=O)NNC(=O)c2ccccc2Br)nnc1C(F)(F)F,5,nt,-2.2,0.3,nt,0.69,nt
CCS(=O)(=O)N1CCCC(C(=O)NCCCOC(C)C)C1 (stereo not drawn),3,0.5,0.8,1.5,1.2,0.71,4%
O=C(CCS(=O)(=O)c1ccccc1)OCC(=O)N1CCN(S(=O)(=O)c2ccc(Cl)cc2)CC1,5,0.6,0.9,-1.3,3.5,0.73,-9%
COc1ccc2c(c1)-c1nc(/N=C/c3ccccc3O)sc1CC2,-5,0.2,-1.7,nt,1.3,nt,30%
Oc1csc(Cc2nc(-c3ccc4ccccc4c3)cs2)n1,23,-8.9,1.5,-7.4,5.5,0.68,?
CCOc1ccc2c(O)csc2c1,7,-0.3,2.6,1.2,1.3,0.75,7%
CC1CCCN(C(=O)C(C)Sc2nc(-c3ccccc3)cc(C(F)(F)F)n2)C1 (stereo not drawn),15,-0.4,-1.1,0.8,-4.0,0.69,0%
CC1(C)OC(=O)C(=CNCCc2ccc(O)cc2)C(=O)O1,3,0.1,-1.5,0.6,1.9,0.67,nt
Cc1cccc(NC(=O)NCC(c2ccc(F)cc2)N2CCN(C)CC2)c1 (stereo not drawn),-4,1.2,-0.1,1.3,-5.7,0.7,nt
Cc1cc(C)c2[nH]c(=O)c(CN(Cc3cccs3)C(=S)NCc3ccco3)cc2c1,1,-0.3,4.2,-1.0,0.6,0.75,nt
CC(=O)c1cccc(NC(=O)Cc2coc3cc4c(cc23)CCC4)c1,-6,1.2,-0.5,1.5,2.0,0.65,1%
Cc1nc2c3ccccc3n(CC(=O)c3ccc(F)cc3)c(=O)n2n1,-14,1.3,1.4,2.1,1.9,0.73,71%
O=C(NCCCN1CCOCC1)c1nn(-c2ccccc2)c(=O)c2ccccc12,-8,0.2,-1.7,2.6,-1.1,0.59,-4%
CN(C)C(CNc1ncnc2sccc12)c1cccs1 (stereo not drawn),-2,2.0,1.5,-0.7,5.2,0.71,nt
CCOC(=O)N1CCN(C(=O)C2CCN(S(=O)(=O)N3CCCC3)CC2)CC1,3,0.4,-0.1,2.4,-0.3,0.7,28%
COC(CC(=O)NNC(=S)Nc1ccccc1)OC,7,0.3,0.5,0.4,-3.1,0.71,-2%

Carrying on.
structure,Beta2AR agonist,A1 inh,HNF4A DNA FP,UCH37 inh,LANA-H2A inh,Ecoli growth,Vif TR-FRET
C[C@H](CO)N1C[C@H](C)[C@@H](CN(C)S(=O)(=O)c2ccc(F)cc2)Oc2c(NC(=O)Nc3ccc4c(c3)OCO4)cccc2C1=O,6,1.0,1.0,4.1,-5.7,0.72,nt
COc1cc(/C=N/Nc2nncn2/N=C/c2ccc(O)c(OC)c2)ccc1O,1,0.2,2.5,nt,1.8,nt,16%
Cc1noc(C)c1S(=O)(=O)Nc1ccc(O)c2c(=O)cc(-c3ccccc3Cl)oc12,3,1.2,3.1,1.7,7.6,0.68,nt
O=C(c1ccc(Cl)c(S(=O)(=O)N2CCOCC2)c1)N(c1ccccn1)C1CCCCC1,1,-0.1,6.5,1.6,-3.5,0.67,-5%
CC(C)(C)c1ccc(C(=O)Nc2ccc(CN3CCS(=O)(=O)CC3)cc2)cc1,5,0.9,-1.4,1.2,-0.3,0.68,-12%
Cc1ccc(S(=O)(=O)N(C)CCN(C)S(=O)(=O)c2ccc(C)cc2)cc1,27,nt,-2.7,-0.3,nt,0.68,-5%
COc1ccc(CCN(Cc2cc3ccc(C)cc3n3nnnc23)C(C)=O)cc1OC,9,-0.6,-2.3,1.6,1.9,0.7,nt
C[C@H]1CN(C2CCCCC2)C(=O)[C@@H]1CC(=O)NCc1ccccc1,0,0.0,-4.4,0.0,0.9,nt,nt
COc1ccc(C(C(=O)NCc2ccccc2)N(Cc2cccs2)C(=O)c2cnccn2)cc1 (stereo not drawn),14,0.5,1.7,5.6,-3.5,0.67,3%
CCCCCCCC(=O)N/N=C/c1ccco1,-1,-0.7,-1.0,nt,0.7,nt,-1%
Clc1ccc(OCc2nn3c(-c4ccncc4)nnc3s2)cc1,0,-0.8,-2.7,4.4,3.4,0.73,-1%
COc1cc(OC)c(C(=O)/C=C/c2ccccc2)c(O)c1O,-5,0.1,-0.8,9.6,-0.2,0.79,nt
CC(C)NC(=O)CSc1nc(N)c(NC(=O)c2ccccc2F)c(=O)[nH]1,-3,-0.2,-0.4,nt,3.8,nt,nt
O=C(Nc1cccc(F)c1)c1cc(S(=O)(=O)NCCC2=CCCCC2)ccc1F,-5,0.4,0.6,3.2,0.0,0.66,nt
Nc1nc(N)nc(-c2cc([N+](=O)[O-])ccc2O)n1,-4,-2.1,-4.0,1.6,0.3,0.69,nt
O=C(CSc1nnc(CNc2ccc(Cl)cc2)n1Cc1ccccc1)NCc1ccco1,3,-1.2,3.9,2.0,0.3,0.72,14%
O=C(CN1CCc2ccccc2C1)Nc1ccccc1N1CCCCCC1,110*,-0.9,0.7,1.7,-3.4,0.7,30%
NC(=O)C1CCN(C(=O)c2ccc(NC3=NC4CS(=O)(=O)CC4S3)cc2)CC1 (stereo not drawn),-25,0.7,0.6,2.2,-4.8,0.77,6%
COc1ccc2[nH]c(=O)c(CN(Cc3ccco3)C(=O)c3ccccc3)cc2c1,-6,0.5,-1.0,-20,4.3,0.69,-10%
Cc1cccc(N2CC(C(=O)Nc3cccc(S(=O)(=O)N4CCCCC4)c3)CC2=O)c1C (stereo not drawn),1,-0.7,2.5,-0.2,-0.6,0.69,-3%

Remaining list, next part
structure,Beta2AR agonist,A1 inh,HNF4A DNA FP,UCH37 inh,LANA-H2A inh,Ecoli growth,Vif TR-FRET
N/C(=N\OC(=O)/C=C/c1ccccc1Cl)c1cccnc1,3,-5.1,5.7,3.3,1.4,0.65,4%
O=C1C2=C(Nc3ccccc3SC2c2ccco2)c2ccccc21 (stereo not drawn),5,0.6,2.3,1.0,0.7,0.7,1%
O=[N+]([O-])c1ccc(-c2c(O)c3ccccc3c3nc4ccccc4nc23)cc1,2,0.3,-0.6,nt,-4.3,nt,3%
O=C(Nc1ccsc1C(=O)O)c1ccc(Cl)cc1,5,-6.6,-0.4,2.3,1.6,0.64,nt
COc1ccc(N2CCN(CC(=O)N3CCC(C)CC3)CC2)cc1,9,0.6,0.6,0.9,-1.4,0.68,6%
COc1cc(/C=N/NC(=O)c2ccc(F)cc2)ccc1OC(=O)c1ccco1,-2,-0.7,-5.4,nt,-1.9,nt,-3%
NS(=O)(=O)c1ccc(CCNC(=O)NC2(C(F)(F)F)Oc3ccccc3O2)cc1,0,1.3,1.4,0.4,4.8,0.66,?
C=CCS/C(=N\n1cnc2ccccc2c1=O)N(CC)CC,8,1.1,2.4,nt,5.8,nt,4%
CC(=O)N1CCCc2ccc(NS(=O)(=O)c3ccc(C)cc3)cc21,-11,0.4,4.6,-0.5,-0.9,0.7,7%
COC(=O)CC1COc2ccccc2N1C(=O)c1ccc(Cl)cc1 (stereo not drawn),8,0.7,-2.3,3.4,5.3,0.72,?
CCc1ccc(-c2csc(NC(=O)COC(=O)CCc3nc4ccccc4s3)n2)cc1,nt,-0.8,nt,17,4.4,nt,nt
Cc1ccc(NC(=O)CNC(=O)c2cccc(Cl)c2)nc1,2,-0.1,2.1,-1.7,-5.4,0.69,-8%
COc1ccc2c(CC(=O)NC(Cc3ccc(Cl)cc3)C(=O)O)cc(=O)oc2c1C (stereo not drawn),18,-0.1,-0.1,i,2.8,0.68,-2%
O=C(C1CC(=O)N(c2ccc(Br)cc2)C1)N1CCCC1 (stereo not drawn),2,0.4,0.7,-0.3,-0.7,0.7,nt
